# Mtb H37Rv = Mycobacterium tuberculosis H37Rv growth inhibition, cell based, confirmatory dose response (AID 1949); M. tuberculosis H37Rv growth inhibition; most inactive calls were filed without a number and no value below 0 was filed; one-dose inhibition, % at 10 µg/mL; IC50 in µg/mL for titrated hits; 100,000 tested, 1.6% active;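 active = confirmed in a dose series; inconclusive = about 50% or more but not retested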;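 note: bacteria grown 7 days with compound before Alamar blue readout; 0% = untreated bacteria and 100% = reference antibiotic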
# * marks the source's active call; other numbers are inactive results; i = inactive; ? = inconclusive.
entry	smiles	Mtb H37Rv
1	CCOC(=O)C1CCN(C(=O)COc2ccc(S(=O)(=O)N3CCCC3)cc2C)CC1	i
2	CC(C)NS(=O)(=O)c1ccc(CCC(=O)Nc2ccc(I)cc2)cc1	i
3	O=C(COc1ccc(Cl)cc1)Nc1cccc2cccnc12	10%
4	Cc1ccc(C(=O)NCC(=O)OCc2ccc(C(=O)OC(C)C)cc2)cc1	i
5	Cc1cc(=O)[nH]c(Nc2cccc(F)c2)n1	i
6	CCOc1ccc(C(=O)NCC2CCCO2)cc1Cl (centres undefined)	i
7	COc1ccc(-c2nc3scc(-c4ccc(OC)c(OC)c4)c3c(=O)o2)cc1	i
8	CN(C)C(=O)N1CCC(Cc2ccccc2)CC1	i
9	CCN(CC)c1ccc2cc(-c3nnc(NCc4ccccc4)s3)c(=O)oc2c1	i
10	CCOc1ccc(NC(=O)NC(C)c2cnn(CC)c2C)cc1 (centres undefined)	0%
11	O=C(O)CCCC(=O)NNC(=O)Cc1ccccc1	i
12	COC(=O)c1c(C)oc2ccc(OC(=O)c3ccc([N+](=O)[O-])cc3)cc12	i
13	Cc1cccc(NC(=O)C23CC4CC(C2)CC(C(=O)Nc2cccc(C)c2)(C4)C3)c1	i
14	Cc1ccc(C(C)C)c(OCC(=O)Nc2ccc(S(=O)(=O)Nc3cc(C)nc(C)n3)cc2)c1	i
15	CCCS(=O)(=O)N1CCN(c2ccccc2F)CC1	i
16	Oc1ccccc1C(=S)N1CCN(Cc2ccccc2)CC1	i
17	O=C(COc1ccc(Br)cc1)Nc1ccc(S(=O)(=O)Nc2ccccc2)cc1	i
18	COc1ccccc1CC(=O)Nc1ccc(Oc2ccccc2)cc1	i
19	O=C(NCc1ccc2c(c1)OCO2)c1cnn2c(C(F)F)cc(C3CC3)nc12	i
20	CC1(C)CC(=O)C2=C(C1)c1c(ccc3ccccc13)NC2c1ccc(N2CCC(Cc3ccccc3)CC2)c([N+](=O)[O-])c1 (centres undefined)	i
21	O=S(=O)(Nc1cc(Cl)ccc1O)c1ccc(F)cc1	i
22	Cc1ccc(NC(=S)NC(=O)C(C)(C)C)cc1Cl	5%
23	CCn1c(-c2ccccc2Cl)nc2ccccc21	4%
24	CCN(CC)C(=O)c1ccc(Nc2nnc(-c3ccc(C)c(S(N)(=O)=O)c3)c3ccccc23)cc1	i
25	CC(C)CSc1ccccc1NC(=O)c1sc2nc(-c3ccncc3)ccc2c1N	3%
26	N#Cc1c(N2CCCC2)nc(-c2ccco2)c2c1CCCC2	1%
27	COC(=O)C1=C(C)N(C)C(=S)NC1c1ccccc1 (centres undefined)	i
28	COc1ccccc1NC(=O)c1sc2ncn(CC(=O)Nc3ccccc3C(C)C)c(=O)c2c1C	i
29	COCCNC(=O)CCCC(=O)NCCOC	i
30	O=C(CSc1nnc(Cc2ccccc2)o1)Nc1cccc(F)c1	i
31	O=c1c2sc3nc(N4CCOCC4)c4c(c3c2ncn1CCc1ccccc1)CCCC4	2%
32	CC(C)c1ccc(N(CC(=O)NC2CCCCC2)S(=O)(=O)c2ccccc2)cc1	i
33	Cc1onc(-c2ccccc2)c1C(=O)N1CCN(S(=O)(=O)c2ccccc2)CC1	i
34	O=C(Nc1ccc(N2CCN(C(=O)c3ccccc3)CC2)c(Cl)c1)c1ccco1	i
35	O=C(CC1Sc2ccccc2NC1=O)Nc1ccc(N2CCOCC2)cc1 (centres undefined)	i
36	COc1ccc(NC(=S)Nc2cnn(Cc3c(F)cccc3Cl)c2)cc1OC	i
37	CCCC(=O)Nc1ccccc1C(=O)Nc1cccc(C(=O)O)c1	4%
38	COC(=O)C1=CN(C)C=C(C(=O)OC)C1c1ccc(Cl)s1	9%
39	CC(C)C(=O)NC(=S)Nc1ccc(CN2CCOCC2)cc1	i
40	COc1ccc(NC(=O)C2CCCCC2)cc1Cl	i
41	O=S(=O)(NCCOCc1ccccc1)c1ccccc1	7%
42	C=CCOc1ccc(C2C(C(=O)OCC)=C(C)NC3=C2C(=O)CC(C)(C)C3)cc1OC (centres undefined)	3%
43	O=S(=O)(c1ccc(Cl)s1)N1CCN(c2ccc(F)cc2)CC1	i
44	COc1cc(OC)c(NC(=S)NCc2ccc(F)cc2)cc1Cl	i
45	O=C(Nc1ccc(N2CCOCC2)cc1)c1ccc2c(c1)OCCO2	i
46	CCOC(=O)c1ccc(NC(=O)C2CC(=O)NC(=Nc3ccc(C)c(C)c3)S2)cc1 (centres undefined)	i
47	CC(NS(=O)(=O)c1ccc(CN2C(=O)c3ccccc3C2=O)cc1)c1ccccc1 (centres undefined)	i
48	Cc1ccc2nc(NC(=O)COC(=O)CSc3nc(C)cc(C)n3)sc2c1	1%
49	COC(=O)C1=CNC=C(C(=O)OC)C1c1cccc(Cl)c1	i
50	CCCCN1C(=O)NC(=O)/C(=C\c2ccc(C(=O)O)cc2)C1=O	i
51	O=[N+]([O-])c1cccc(-c2nnc3ccccn23)c1	i
52	O=C(Nc1ccccc1C(=O)NC12CC3CC(CC(C3)C1)C2)C(=O)c1c[nH]c2ccccc12	4%
53	CCOc1cc(C(Nc2cc(C)ccn2)c2ccc3ccc(C)nc3c2O)ccc1OC (centres undefined)	i
54	Cc1cc(C)c(N2CCN(S(=O)(=O)c3cc(Cl)ccc3Cl)CC2)c(C)c1	i
55	COc1ccc(NC(=O)Nc2cc(C(F)(F)F)ccc2F)cc1OC	i
56	COCCCNC(=S)Nc1ccc(Cl)c(Cl)c1	i
57	NC(=O)c1c(NC(=O)C2CCCO2)sc2c1CCCCC2 (centres undefined)	i
58	CCc1cccc(NC(=O)C(C)C2Sc3ccccc3NC2=O)c1 (centres undefined)	i
59	CN1C2=NCCN2C(=O)c2ccccc21	i
60	O=S(=O)(c1ccc(Cl)cc1)N1CCN(c2ccc(Cl)cc2)CC1	i

# From entry 41 up to 44, copied from above:
entry	smiles	Mtb H37Rv
41	O=S(=O)(NCCOCc1ccccc1)c1ccccc1	7%
42	C=CCOc1ccc(C2C(C(=O)OCC)=C(C)NC3=C2C(=O)CC(C)(C)C3)cc1OC (centres undefined)	3%
43	O=S(=O)(c1ccc(Cl)s1)N1CCN(c2ccc(F)cc2)CC1	i
44	COc1cc(OC)c(NC(=S)NCc2ccc(F)cc2)cc1Cl	i

# (continued)
entry	smiles	Mtb H37Rv
61	CCOC(=O)C1CCN(C(=O)Nc2ccc3snnc3c2)CC1	3%
62	COC(=O)CSc1nc(-c2cccc(C)c2)nc2c1CCCC2	16%
63	O=C(O)COc1ccccc1/C=N\NC(=O)Cn1cnc2ccccc21	i
64	Cc1cccc(NC(=O)CCCCC(=O)Nc2cccc(C)c2)c1	i
65	COc1ccc(C(=O)NC(=S)Nc2ccc3c(c2)Cc2ccccc2-3)cc1	i
66	Clc1ccc(-c2ccc(CNCCN3CCOCC3)o2)c(Cl)c1	29%
67	COC(=O)c1ccccc1NC(=O)CSc1nnc(CSc2nc3ccccc3s2)o1	i
68	COc1ccc(Cc2nnc(SCC(=O)Nc3c(F)cc(F)cc3Br)n2C)cc1	i
69	Cc1ccc(-n2c(SCCc3ccccc3)nc3sc4c(c3c2=O)CC(C)(C)OC4)cc1	i
70	Cc1ccc(N=C2N=C(N)c3ccccc32)c(C)c1	0%
71	COc1cc(SC)ccc1C(=O)N1CCC(Cc2ccccc2)CC1	0%
72	CCN(CC)c1ccc(NC(=O)c2c(-c3c(Cl)cccc3Cl)noc2C)cc1	2%
73	O=C(CSc1ncn(-c2ccccc2)n1)Nc1nccs1	1%
74	Cc1ccccc1NS(=O)(=O)c1ccc(NS(=O)(=O)c2ccccc2)cc1	i
75	Cc1ccc(C)c(OCC(=O)Nc2ccc(S(=O)(=O)N3CCOCC3)cc2)c1	i
76	CC(C)C(=O)N1CCN(c2ccccc2NC(=O)c2ccc(Cl)cc2Cl)CC1	2%
77	CCOc1ccc(C)cc1S(=O)(=O)N1CCCCC1	i
78	CCc1ccc(OCCNC(=O)c2cc(SC)ccc2Cl)cc1	i
79	O=C(c1cccs1)N1CCC(N(CCc2ccccc2)Cc2ccccc2)CC1	11%
80	CN1CCN(c2ccccc2NC(=S)NC(=O)c2ccco2)CC1	i
81	CC1(C)Cc2c(C#N)c(N)n(-c3ccccc3)c(=O)c2CO1	0%
82	COc1ccc(-c2csc(N3CCC(c4ccccc4)CC3)n2)cc1	i
83	O=C(Nc1ccc2nc(NC(=O)c3ccco3)sc2c1)c1ccco1	i
84	Cc1c(Cl)cccc1N(CC(=O)N1CCN(Cc2ccccc2)CC1)S(=O)(=O)c1ccccc1	2%
85	COC(=O)Cc1c(C)c2ccc(OCC(=O)N3CCCC3)c(C)c2oc1=O	i
86	C=C1C2(C(=O)NC(C)c3ccccc3)CCC(C2)C1(C)C (centres undefined)	2%
87	COc1ccc(OC)c(NC(=S)NCCC(c2ccccc2)c2ccccc2)c1	i
88	COC(=O)CCC(=O)Oc1ccc2ccccc2c1	i
89	Cc1ccc(NC(=S)Nc2cc(C)[nH]n2)c(Cl)c1	22µg/mL*
90	OC(COc1ccccc1F)CN1CCC(Cc2ccccc2)CC1 (centres undefined)	3%
91	COc1ccc(SC2CC(=O)N(c3ccccc3Cl)C2=O)cc1 (centres undefined)	36%
92	CC(C)c1ccc(NC(=O)CSc2nnc(CNC(=O)c3ccccc3F)n2C)cc1	i
93	COc1cc(NC(=S)NC(=O)c2ccc3c(c2)OCCO3)ccc1NC(=O)c1cccs1	i
94	CCOc1ccc(N(Cc2cc3ccc(C)cc3[nH]c2=O)C(C)=O)cc1	3%
95	CC(C)NC(=O)c1ccc(S(=O)(=O)N(C)C)cc1	i
96	O=C(CSc1nc2c(c(C(F)(F)F)n1)CCCCC2)NCCC1=CCCCC1	2%
97	Cc1ccc(S(=O)(=O)N(C)c2ccc(C(=O)Nc3cccc(C)c3)cc2)cc1	i
98	O=C(NCc1cccnc1)c1ccccn1	i
99	CN1CCN(NC(=O)CN(C)S(=O)(=O)c2cc(Cl)ccc2Cl)CC1	i
100	CCOc1ccccc1N(CC(=O)Nc1ccc(F)c(F)c1)S(C)(=O)=O	i
101	O=C(NCCN1CCOCC1)c1ccccc1NC(=O)c1cccc2ccccc12	4%
102	COC(=O)c1ccccc1NC(=O)CN(CCc1ccccc1)S(C)(=O)=O	i
103	CCN(CC)CCCC1(O)c2ccccc2-c2ccccc21	i
104	O=C(c1cccs1)c1c[nH]c2ccccc12	i
105	N#CC1=C(N)Oc2c(c(=O)oc3ccccc23)C12C(=O)N(Cc1ccc(Cl)cc1)c1ccccc12 (centres undefined)	i
106	COc1ccc(OC)c(N(CC(=O)N2CCC(C(N)=O)CC2)S(=O)(=O)c2ccc(C)cc2)c1	5%
107	Clc1cccc(CSc2nnnn2-c2ccccc2)c1	i
108	CCc1cccc(C)c1N(C(=O)Cn1c(COc2ccccc2)nc2ccccc21)C(C)COC (centres undefined)	i
109	c1ccc(-c2nnc(N3CCN(c4ccccn4)CC3)c3ccccc23)cc1	?
110	COc1ccccc1-c1nnc(SCC(=O)Nc2ccc(Cl)cc2Cl)n1-c1ccccc1	0%
111	Cc1cc(Cl)cc(Cl)c1OCCCN1CCOCC1	2%
112	COc1ccc(OC)c(NC(=S)NCCSc2ccc(Cl)cc2)c1	1%
113	CCOCc1nnc(NC(=O)C(C)Oc2ccccc2)s1 (centres undefined)	i
114	COc1ccc(NS(=O)(=O)c2cc(C(=O)O)ccc2Br)cc1	i
115	O=C(Nc1ccc2c3c(cccc13)CC2)c1cc(-n2cnnc2)ccc1Cl	16%
116	CCc1ccc(OCC(=O)Nc2sc(Cc3ccccc3)c(C)c2C(N)=O)c(Br)c1	i
117	FC(F)(F)c1ccc(Nc2nc(-c3ccncc3)cs2)cc1	16%
118	Oc1ccc(Nc2nc(-c3ccc(O)cc3)cs2)cc1	i
119	COc1ccccc1C(=O)Nc1ccc(S(=O)(=O)N2CCCC2)cc1	9%
120	Cc1nnc(SCC(=O)N2CCN(c3ccccc3)CC2)s1	i

# The results go on.
entry	smiles	Mtb H37Rv
121	COc1ccc(S(=O)(=O)Nc2c(C)cc(C)cc2C)cc1OC	0%
122	CCOc1cc(/C=C2/C(=O)NC(=O)N(c3ccc(CC)cc3)C2=O)ccc1OC(=O)c1cccs1	i
123	O=C(OCc1ccc(Br)cc1)c1ccc(Cl)cc1	i
124	COc1ccc(-c2[nH]ncc2Oc2ccc(Cl)cc2)c(O)c1	?
125	COC(=O)Cc1ccc(NC(=S)N2CCOCC2)cc1	i
126	CCc1cccc(CC)c1NC(=O)c1ccc(O)cc1	i
127	Cc1ccc(NS(=O)(=O)c2ccc3c(c2)OCCO3)cc1C	7%
128	O=C(NCc1cccnc1)c1cccnc1-c1nc2ccccc2s1	i
129	CCn1c2ccccc2n2c(SCCOc3ccc(C)cc3)nnc12	i
130	CCc1ccc(OCCNc2nc(C)c(Br)c(=O)[nH]2)cc1	i
131	O=C(Nc1ccccc1)c1ccccc1NS(=O)(=O)c1ccc(Cl)s1	i
132	CCOC(=O)c1c(NC(=O)c2ccccc2)sc(C(C)=O)c1-c1ccccc1	i
133	COc1ccccc1OCC(=O)O/N=C(\N)c1ccc([N+](=O)[O-])cc1	i
134	COc1cc(C(=O)Nc2ccc(S(=O)(=O)NC(C)(C)C)cc2)cc(OC)c1OC	i
135	c1ccc(CSc2ncn(-c3ccccc3)n2)cc1	i
136	CCC(=O)c1ccccc1OCCOCCN1CCN(C)CC1	i
137	Cc1cc(-c2ccccc2)nc2cc(C(=O)N3C(C)CCCC3C)nn12 (centres undefined)	9%
138	Cc1ccccc1C(=O)Nc1ccccc1C(C)(C)C	i
139	O=C(CNC(=O)c1ccco1)c1ccc(F)cc1	i
140	Cc1ccc(-c2csc(NC(=O)CSc3nc4ccccc4s3)n2)cc1	i

# Arranged by molar mass (low to high): some entries from above
entry	smiles	Mtb H37Rv
138	Cc1ccccc1C(=O)Nc1ccccc1C(C)(C)C	i
127	Cc1ccc(NS(=O)(=O)c2ccc3c(c2)OCCO3)cc1C	7%
123	O=C(OCc1ccc(Br)cc1)c1ccc(Cl)cc1	i
140	Cc1ccc(-c2csc(NC(=O)CSc3nc4ccccc4s3)n2)cc1	i

# Assay outcomes deposited in PubChem by Southern Research Institute.

# These rows are one share of the data. The share of hits here may be higher or lower than overall.
